# BJeLR viability = lowers viability of BJeLR cells. hit rate 0.64% among 30,000. viability loss activity score, % (no concentration beside the values). BJeLR fibroblasts viability, CellTiterGlo ATP luminescence, 48 h; HRASV12, hTERT and SV40 LT/ST transformed; in the data active means viability loss activity score above about 50%; inconclusive means no clear call, values can overlap the other calls; inactive means below about 35%; about a fifth of its hits are not listed in these tables;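 further: higher score means fewer live cells and less ATP luminescence; stock transfer was 50 or 100 nL into about 30 µL; 0% = vehicle wells and 100% = a reference killing control; one replicate is shown; the record names a cut of 85%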
# A1 inh = A1 inhibition; MEF A1-2A-BIM cells, caspase-Glo luminescence, 3 h; percent of clofoctol signal, DMSO as zero; caspase activation, % (test concentration not listed); hit rate 0.51% among 21,000; AID 2241;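 active means most replicate scores above 10, or exactly half above 10 with mean activity above 10; inconclusive means mean activity below 10 while half the replicates exceed 10; inactive means most replicate scores below 10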;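 further: effector caspase 3 and 7 activity cleaving a DEVD luciferin substrate; 50 nL library stock added to about 30 µL; numbers are from one replicate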
# * marks the source's active call; other numbers are inactive results; ? = inconclusive; · = not tested or not shown. The list is partial (hit frequency here may not be typical).
SMILES,BJeLR viability,A1 inh
CC(=O)O[C@H]1C[C@@]2(C)[C@@H](C[C@@H](O)C3[C@]2(C)CC[C@H]2[C@H](C)[C@H](O)CC[C@]32C)/C1=C(/CCC=C(C)C)C(=O)O (some centres undefined),15.3,0.3
COc1ccc(Cn2cc(-c3ccccc3)nn2)cc1,6.5,-2.9
C[C@H](CO)N1C[C@H](C)[C@@H](CN(C)C(=O)Nc2ccc(C(F)(F)F)cc2)Oc2ccc(NC(=O)CCC(F)(F)F)cc2C1=O,-1.8,0.2
CC(=O)n1c(C=NCc2ccccc2)c(O)c2ccccc21,-3.2,-0.4
C[C@@H]1CN([C@@H](C)CO)C(=O)c2cccc(NC(=O)C3CCOCC3)c2O[C@H]1CN(C)Cc1ccccc1,1.3,·
COc1ccc(NC(=O)N(C)C[C@H]2Oc3ccc(NS(=O)(=O)c4ccc(OC)cc4)cc3C(=O)N([C@H](C)CO)C[C@H]2C)cc1,1.4,0.0
C[C@@H]1CN([C@H](C)CO)C(=O)c2cc(N(C)C)ccc2O[C@@H]1CN(C)Cc1ccncc1,-1.6,1.4
C[C@@H]1CN([C@@H](C)CO)C(=O)c2cc(NC(=O)CCCN(C)C)ccc2O[C@H]1CN(C)Cc1ccc(-c2ccccc2)cc1,2.4,-0.8
COc1cc(SC)ccc1C(=O)NC1CC1,-0.9,-0.2
CCCCn1c(=O)c(C#N)cc2c(=O)n3ccccc3nc21,1.5,-1.2

# Single records, from the list above. Order of values: BJeLR viability, A1 inh
# Profile of COc1ccc(Cn2cc(-c3ccccc3)nn2)cc1 = 6.5, -2.9
# Profile of C[C@@H]1CN([C@@H](C)CO)C(=O)c2cccc(NC(=O)C3CCOCC3)c2O[C@H]1CN(C)Cc1ccccc1 = 1.3, ·
# Profile of COc1cc(SC)ccc1C(=O)NC1CC1 = -0.9, -0.2

# Going on with the list.
SMILES,BJeLR viability,A1 inh
COc1ccc(C2=NN(C(C)=O)C(c3ccccc3)C2)cc1OC (centres undefined),1.0,-0.2
CCOC(=O)NC(=S)N1CCCC1,-10.0,-0.2
COc1ccc(S(=O)(=O)N(C)C[C@H]2Oc3c(NS(=O)(=O)c4ccc(Cl)cc4)cccc3C(=O)N([C@@H](C)CO)C[C@@H]2C)cc1,-7.6,·
COc1ccc(S(=O)(=O)N(C)C[C@H]2Oc3ccc(NC(=O)Cc4cn(C)c5ccccc45)cc3C(=O)N([C@@H](C)CO)C[C@H]2C)cc1,6.7,0.0
O=c1[nH]nc(SCc2ccccc2)n1-c1ccc(OCc2ccccc2)cc1,-2.9,0.2
C[C@H]1CN([C@@H](C)CO)C(=O)c2cccc(NC(=O)Nc3ccccc3)c2O[C@@H]1CN(C)C,2.3,·
C[C@@H]1CN([C@H](C)CO)C(=O)c2cc(NC(=O)Nc3ccc(C(F)(F)F)cc3)ccc2O[C@H]1CN(C)S(=O)(=O)c1ccc(Cl)cc1,2.4,0.3
COC(=O)c1cn(Cc2ccc(Cl)cc2)cc(F)c1=O,-2.2,·
C[C@H](CO)N1C[C@H](C)[C@H](CN(C)Cc2ccc3c(c2)OCO3)Oc2ccc(NC(=O)CCC(F)(F)F)cc2C1=O,-0.2,-0.8
C[C@H]1CN([C@@H](C)CO)C(=O)c2cc(NC(=O)NC3CCCCC3)ccc2O[C@H]1CN(C)S(=O)(=O)c1ccccc1,-1.8,-0.6
C[C@H]1CN([C@@H](C)CO)C(=O)c2cccc(N(C)C)c2O[C@@H]1CN(C)C(=O)Nc1ccccc1,-0.8,·
Cc1cccc(NC(=O)c2cccc(C(=O)Nc3cccc(C)c3)c2)c1,4.8,-0.8
C[C@H]1CN([C@@H](C)CO)C(=O)c2cc(NC(=O)Nc3ccc4c(c3)OCO4)ccc2O[C@H]1CN(C)Cc1ccccc1,1.0,1.0
CC(C)(C)c1ccc(C(=O)Oc2ccccc2CCC(=O)O)cc1,1.8,·
C[C@H](CO)N1C[C@H](C)[C@@H](CN(C)CC2CC2)Oc2c(NC(=O)c3nc4ccccc4s3)cccc2C1=O,2.3,·
COc1ccc(/C=C/C(=O)NCC2(c3ccccc3)CCOCC2)cc1,1.4,-0.3
O=C(Nc1ccccc1N1CCOCC1)c1ccccc1,-2.2,0.9
C[C@@H]1CN([C@@H](C)CO)C(=O)c2cc(NC(=O)Nc3cccc4ccccc34)ccc2O[C@@H]1CN(C)S(=O)(=O)c1ccc(F)cc1,0.4,1.4
CCc1ccc(NC(=O)C2CCN(C(=O)c3ccc(F)cc3)CC2)cc1,3.4,0.1
Cc1ccc(S(=O)(=O)N2CCCC2)cc1-c1nnc2c3ccccc3c(C)nn12,2.2,·
COc1ccc(OC)c(CCCCc2cc(OC)ccc2OC)c1,0.6,0.0
OCC1OC(OCC2OC(NCCc3ccc(O)cc3)C(O)C(O)C2O)C(O)C(O)C1O (centres undefined),0.5,0.2
CCOC(CCn1c(SCc2cc(=O)n3ccccc3n2)nc2ccccc2c1=O)OCC,1.0,-1.4
COC(=O)c1ccc(Cn2c(O)c(N=O)c3ccccc32)o1,-3.0,0.9
C[C@@H]1CN([C@@H](C)CO)C(=O)c2cc(NS(=O)(=O)c3ccc(Cl)cc3)ccc2O[C@H]1CN(C)Cc1ccc(C(=O)Nc2ccccc2N)cc1,-1.1,·
Nc1ccccc1C(=O)NCc1c(F)cccc1Cl,-3.6,0.3
COc1ccc(NC(=O)N(C)C[C@@H]2Oc3c(NC(=O)c4nc5ccccc5s4)cccc3C(=O)N([C@H](C)CO)C[C@@H]2C)cc1,-0.2,·
C[C@H]1CN([C@@H](C)CO)C(=O)c2cccc(NC(=O)C3CCCCC3)c2O[C@H]1CN(C)S(=O)(=O)c1ccc(F)cc1,-5.7,·
COc1ccc(CN(C)C[C@@H]2Oc3ccc(NC(=O)NC4CCCCC4)cc3C(=O)N([C@@H](C)CO)C[C@@H]2C)cc1,-1.7,-0.3
CC(=O)NCCOc1ccc(C2CCCCC2)cc1,0.8,-0.2
CSc1nc2ccccc2c(=O)n1C1CCCCC1,4.9,?
C[C@@H]1CN([C@H](C)CO)C(=O)c2cc(NC(=O)Nc3ccccc3)ccc2O[C@H]1CN(C)C(=O)Nc1ccc(F)cc1,5.1,-0.4
O=S(=O)(c1ccc(F)cc1)N1CCCC1,-2.3,·
Cc1ccc(-c2nc(NCCC3=CCCCC3)c3ccccc3n2)cc1,6.8,-0.6
CSc1nnc(-c2ccc(C(F)(F)F)nc2C)o1,-2.3,·
C[C@H]1CN([C@@H](C)CO)C(=O)c2cc(NC(=O)Cn3cnnn3)ccc2O[C@@H]1CN(C)C(=O)NC1CCCCC1,-0.5,0.0
CCc1ccc(-c2cc(C(=O)OC)c3ccccc3n2)cc1,-4.1,-1.9
COc1ccc(NC(=O)Nc2ccc3c(c2)C(=O)N([C@@H](C)CO)C[C@@H](C)[C@H](CN(C)S(=O)(=O)c2ccc(OC)cc2)O3)cc1,-0.2,0.1
C[C@H]1CN([C@@H](C)CO)C(=O)c2cccc(NC(=O)c3nc4ccccc4s3)c2O[C@H]1CN(C)S(=O)(=O)c1ccccc1,4.6,·
N#Cc1ccc(CSc2nc3ccccc3s2)cc1,2.7,0.2
C[C@H]1CN([C@@H](C)CO)C(=O)c2cccc(NC(=O)Nc3cccc4ccccc34)c2O[C@H]1CN(C)C(=O)Nc1ccc2c(c1)OCO2,-5.5,·
CC(Oc1ccc(Cl)cc1Cl)C(=O)Nc1nc2c(s1)C(=O)CC(C)(C)C2 (centres undefined),-1.1,-0.2
CC(C)NC(=O)Nc1cccc2c1O[C@@H](CN(C)S(=O)(=O)c1cn(C)cn1)[C@@H](C)CN([C@@H](C)CO)C2=O,-1.1,·
CCOC(=O)c1sc(SC)c2c1CCc1cnc(SC)nc1-2,-2.6,-0.2
O=C1N/C(=N/S(=O)(=O)c2ccccc2)S/C1=C/c1ccco1,2.5,0.1
C[C@H](CO)N1C[C@H](C)[C@@H](CN(C)CC2CCCCC2)Oc2c(NC(=O)Nc3ccc(F)cc3)cccc2C1=O,-1.8,·
c1ccc(N=c2scc(-c3ccccc3)n2Cc2ccco2)cc1,6.7,-1.2
C[C@@H]1CN([C@H](C)CO)C(=O)c2cccc(NC(=O)Nc3cccc4ccccc34)c2O[C@@H]1CN(C)Cc1ccc(C(=O)O)cc1,0.7,·
NS(=O)(=O)c1ccc(NC(=O)COc2ccc(F)cc2)cc1,2.3,1.0
C[C@@H]1CN([C@@H](C)CO)C(=O)c2cccc(NC(=O)C3CC3)c2O[C@H]1CN(C)Cc1ccncc1,-1.9,·

# (listing goes on)
SMILES,BJeLR viability,A1 inh
COc1ccc(NC(=O)c2ccc(CN3CCS(=O)(=O)CC3)cc2)cc1,3.8,0.3
CC(C)=CCc1c2c(c3occ(-c4ccc(O)cc4)c(=O)c3c1O)C=CC(C)(C)O2,-1.0,0.6
Fc1ccc(N2CCN(CCC3OCCc4ccccc43)CC2)cc1 (centres undefined),0.6,0.5
C=C1CC[C@H]2C(=C)CC[C@@]3(O)C(=C)C(=O)O[C@@H]3[C@@H]12,4.2,4.9
CCC(C)/C=C(C)/C=C/C1=CC2=C(Cl)C(=O)C(C)(OC(C)=O)C(=O)C2=CN1CCCC(=O)O (centres undefined),-0.5,1.1
FC(F)(F)c1cc(-c2nc(=S)[nH][nH]2)cc(C(F)(F)F)c1,-1.2,0.7
Cc1oc(-c2ccccc2)nc1Cn1c(SCc2cccc(Cl)c2)nc2ccncc21,-8.4,0.1
O=C(OCc1cccc(O)c1O[C@@H]1O[C@H](CO)[C@@H](O)[C@H](O)[C@H]1O)C1(O)C(=O)C2C=CC1C1C=CC(=O)C(O)(C(=O)OCc3cccc(O)c3O[C@@H]3O[C@H](CO)[C@@H](O)[C@H](O)[C@H]3O)C21 (some centres undefined),-7.1,0.1
CC1(C)CCC2(C(=O)OC3OC(COC4OC(CO)C(O)C(O)C4O)C(O)C(O)C3O)CCC3(C)C(=CCC4C5(C)CCC(OC6OCC(O)C(O)C6O)C(C)(C)C5CCC43C)C2C1O (centres undefined),-2.1,-1.3
O=C(Nc1ccc(-n2nncc2-c2ccccc2)cc1)c1c(F)cccc1F,-1.2,-0.2

# Compounds listed so far that have a Cl atom, in the order listed:
SMILES,BJeLR viability,A1 inh
COc1ccc(S(=O)(=O)N(C)C[C@H]2Oc3c(NS(=O)(=O)c4ccc(Cl)cc4)cccc3C(=O)N([C@@H](C)CO)C[C@@H]2C)cc1,-7.6,·
C[C@@H]1CN([C@H](C)CO)C(=O)c2cc(NC(=O)Nc3ccc(C(F)(F)F)cc3)ccc2O[C@H]1CN(C)S(=O)(=O)c1ccc(Cl)cc1,2.4,0.3
COC(=O)c1cn(Cc2ccc(Cl)cc2)cc(F)c1=O,-2.2,·
C[C@@H]1CN([C@@H](C)CO)C(=O)c2cc(NS(=O)(=O)c3ccc(Cl)cc3)ccc2O[C@H]1CN(C)Cc1ccc(C(=O)Nc2ccccc2N)cc1,-1.1,·
Nc1ccccc1C(=O)NCc1c(F)cccc1Cl,-3.6,0.3
CC(Oc1ccc(Cl)cc1Cl)C(=O)Nc1nc2c(s1)C(=O)CC(C)(C)C2 (centres undefined),-1.1,-0.2
CCC(C)/C=C(C)/C=C/C1=CC2=C(Cl)C(=O)C(C)(OC(C)=O)C(=O)C2=CN1CCCC(=O)O (centres undefined),-0.5,1.1
Cc1oc(-c2ccccc2)nc1Cn1c(SCc2cccc(Cl)c2)nc2ccncc21,-8.4,0.1

# (next part)
SMILES,BJeLR viability,A1 inh
CCOC(=O)C1=C(Cn2nnc(C(=O)OC)c2C(=O)OC)NC(=O)NC1c1ccccc1 (centres undefined),-1.0,·
C=CCN1C(=O)N(CC=C)c2cccc3cccc1c23,-3.5,·
COc1ccc(CN(C)C[C@@H]2Oc3c(NS(=O)(=O)c4ccccc4)cccc3C(=O)N([C@@H](C)CO)C[C@H]2C)cc1,-2.1,·
C[C@H](CO)N1C[C@H](C)[C@@H](CN(C)S(=O)(=O)c2cn(C)cn2)Oc2c(NS(=O)(=O)c3cn(C)cn3)cccc2C1=O,-7.9,·
O=C(OCCn1ncc2ccccc2c1=O)c1cccs1,-3.9,-1.4
O=C(ON1C(=O)c2ccccc2C1=O)C1CCCCC1,-3.5,1.1
CC(C(=O)NCc1ccco1)n1c2ccccc2c2cnn(C)c(=O)c21 (centres undefined),-5.8,-0.2
O=C(C1CCCN(S(=O)(=O)c2cccc3nonc23)C1)N1CCN(c2ccc(F)cc2)CC1 (centres undefined),0.7,·
CC(C)(O)CC[C@@H](O)[C@](C)(O)C1CC[C@@]2(O)C3=CC(=O)C4C[C@@H](O)[C@@H](O)C[C@]4(C)C3CC[C@]12C (some centres undefined),0.8,-0.4
CC(C)(C)NC(=O)N1CCC(Nc2nccc(C(F)(F)F)n2)CC1,-1.6,·
O=C(Nc1ccc(Cl)cc1Cl)c1cc2nc3c(c(C(F)(F)F)n2n1)CCc1ccccc1-3,1.2,1.2
CC1CCCCC1NC(=O)CCCn1c(=O)[nH]c2ccsc2c1=O (centres undefined),2.3,·
C[C@@H]1CN([C@H](C)CO)C(=O)c2cc(NS(=O)(=O)c3ccc(F)cc3)ccc2O[C@H]1CN(C)Cc1ccc(C(F)(F)F)cc1,7.1,-0.4
Cc1ccc(S(=O)(=O)N(C)C[C@H]2Oc3ccc(NC(=O)NC4CCCCC4)cc3C(=O)N([C@H](C)CO)C[C@@H]2C)cc1,-1.9,0.7
Cc1noc(C)c1S(=O)(=O)Nc1ccc2c(c1)C(=O)N([C@@H](C)CO)C[C@H](C)[C@@H](CN(C)CC1CC1)O2,-3.9,0.1
C[C@H]1CN([C@@H](C)CO)C(=O)c2cccc(NC(=O)Nc3ccc4c(c3)OCO4)c2O[C@H]1CN(C)C,2.6,·
COc1cc2c(cc1OC)n(CC(=O)NC1CCCC(C)C1C)n1c(C)cc(=O)nc21 (centres undefined),-3.2,-0.8
CCOC(=O)Oc1ccc2c(c1)C(C)=CC(C)(C)N2C(=O)OCC,-0.3,0.6
COc1ccc(OC)c(NC(=O)CS(=O)(=O)c2cccc3nsnc23)c1,3.7,·
